2A StopGo = High Throughput Screening for Foot and Mouth Disease Virus Antivirals; human cells with a luciferase reporter of 2A StopGo recoding; control for the full effect not named in the record; Potency, µM (top dose mostly 57.9 µM), for inactives: top-dose signal change, negative = less light; hit rate 1.2% among 410,000; AID 1159524, 2015; active = well fitted falling curve with a large enough effect; inconclusive = small, poorly fitted or top-dose-only effect; inactive = no such curve, though single readings can be large or run the other way; tested in HEK293T cells; also: nearly all actives have a fitted effect of over 45% in size; luciferase light after 4 h
RE007 growth inh = qHTS Assay for Inhibitors of the HIV-1 protein Vpr; S. pombe RE007 Vpr strain, BacTiter-Glo ATP luminescence, 24 h; control for the full effect not named in the record; Potency, µM (titrated, usually from 92.2 µM), without a hit: top-dose activity change, negative = less growth; hit rate 0.21% among 360,000; AID 651644, 2012; active = well fitted falling curve with a large enough effect; inconclusive = small, poorly fitted or top-dose-only effect; inactive = no such curve, though single readings can be large or run the other way;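 also: nearly all actives have a fitted effect of over 50% in size; the assay follows cell death caused by Vpr and the record does not say whether a fall means rescue or toxicity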
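Fission yeast strain RE007, carrying one chromosomally integrated HIV-1 vpr copy, was seeded at OD 0.01 in PMG+AL medium with 23 nL pinned compound. After 24 h at 30 °C and 99% humidity, viability was read by BacTiter-Glo luminescence.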
* marks the source's active call; other numbers are inactive results; ? = inconclusive; & = joins results of further samples; [ ] = another dose, or the depositor's remark. % is scaled to controls: 0 for no effect and ±100 for the full control effect; potency is read from the fitted curve at half-maximal effect. The list is partial. The share of hits here may be higher or lower than overall.

Molecule | 2A StopGo | RE007 growth inh
COc1ccc(C2=Nc3ccccc3N(C(=O)c3ccc(C)cc3)C2C(=O)Nc2c(C)cccc2C)cc1 (stereo not drawn) | -2% | -13%
O=C(COC(=O)c1cccc(Br)c1)Nc1cccc(S(=O)(=O)N2CCCCC2)c1 | -16% | 5%
Cc1cn([C@H]2C[C@H](O)[C@@H](/C=C/C(=O)NCCc3cccnc3)O2)c(=O)[nH]c1=O | -20% | 103%
CCCCN(C=O)c1c(CC)nc2c(OCC(=O)N3CCOCC3)cccn12 | -22% | 5%[18.4 µM]
COC(=O)[C@H]1C[C@@]2(O)CN(S(=O)(=O)c3ccc(C)cc3)C[C@@]2(OC(=O)Nc2c(C)noc2C)C[C@H]1C(=O)OC | -18% | 19%
COc1cc(CNc2nccn3ccnc23)cc(OC)c1 | -6% | -20%
CCOC(=O)C1CCCN(C(=O)c2sc(-c3ccccc3)nc2C)CC1 (stereo not drawn) | 7% | -10%[18.4 µM]
CC1(C(=O)NS(=O)(=O)c2cccc(OC(F)F)c2)CCN1C(=O)COc1ccc(Cl)cc1 (stereo not drawn) | -12% | 5%
CCOC(=O)[C@]12CCC=C1N(Cc1ccc3c(c1)OCO3)C(=O)[C@H](CC(=O)NCc1ccc(C)o1)C2 | -4% | 18%
CCc1cccc(CC)c1N1C(=O)CSCC1=O | -2% | 1%
O=C(NC(c1ccc(F)cc1)c1ccc2ccccc2n1)C1CCN(CCOc2ccc(Cl)cc2Cl)CC1 (stereo not drawn) | -20% | 7%
O=C(c1[nH]c(C(F)(F)F)nc1-c1ccccc1)N1CCN(c2c(Cl)cncc2Cl)CC1 | 17% | 1%
O=C1NC[C@H](c2ccccc2)N(CCCCC2CCCCC2)C1=O | -23% | 7%
S=C(NCCc1ccccc1)N1CCC2CC1c1cc(-c3ccc4c(c3)OCO4)ccc12 (stereo not drawn) | -9% | 0%
CC(C)Nc1nc(Nc2ccccc2Cl)c2sccc2n1 | -11% | ?
OC(c1ccc(Cl)c(Cl)c1)c1ncc(-c2ccc(C(F)(F)F)cc2)[nH]1 (stereo not drawn) | -7% | 5%[18.4 µM]
COCc1cccc(-c2csc(C(C)(NC(C)=O)c3ccccc3)n2)c1 (stereo not drawn) | -4% | 24%
NC(c1csc(NC(=O)Nc2ccc(OC(F)(F)F)cc2)n1)C1CCCCC1 (stereo not drawn) | ? | 14%
CC1CCCCC1NC(=O)c1cc(Cl)nc2ccccc12 (stereo not drawn) | -13% | 0%
CCCCCC(=O)N1C[C@H](O)[C@@H](n2cc(COC(=O)c3ccccc3)nn2)C[C@@H]1c1ccccc1 | -16% | -10%
O=C(NCc1cccnc1)c1cc(C2CCCN(C(=O)CCCc3ccccc3)C2)on1 (stereo not drawn) | ? | -5%
CC1(C(=O)Nc2ccc3c(c2)OCCO3)CCN1Cc1ccc(-c2ccccn2)cc1 (stereo not drawn) | -17% | -9%[18.4 µM]
CCc1ccc(C(O)c2ncc(-c3ccc(C(F)(F)F)cc3)[nH]2)cc1 (stereo not drawn) | -6% | -2%[18.4 µM]
CN(C(=O)c1ccc(NC(=O)Cc2ccc(NC(=O)C3CCCN(C(=O)C4CCC4)C3)cc2)cc1)C1CCCC1 (stereo not drawn) | -13% | 1%
COc1cccc(C(c2nnnn2C2CCCC2)N2CCC3(CC2)C(=O)NCN3c2ccccc2)c1OC (stereo not drawn) | 36%[activator] | -14%
CN(CC(=O)Nc1ccc(Cl)c(C(F)(F)F)c1)C(=O)C1CC(=O)N(c2ccc3c(c2)OCCO3)C1 (stereo not drawn) | ? | 9%
O=C(CCNC(=O)c1ccccc1Cl)Nc1ccc(S(=O)(=O)N2CCOCC2)cc1 | -15% | -5%
CC(=O)Nc1cccc(-c2ccnc3c2CC(C(=O)NCc2ccc(N(C)C)cc2)O3)c1 (stereo not drawn) | ? | 4%
Nc1[nH]c(C(=O)c2ccccc2)c(-c2ccccc2C(F)(F)F)c1C(=O)NCCc1c[nH]c2ccccc12 | 4% | 5%
CC(=O)C1=CCC(c2ccc(F)cc2)N(S(=O)(=O)c2ccc(C)cc2)C1 (stereo not drawn) | 4%&-24% | 24%&1%
C[C@H]1CN([C@@H](C)CO)C(=O)CCCn2cc(nn2)CO[C@@H]1CN(C)S(=O)(=O)c1ccc2ccccc2c1 | -19% | -9%
Cc1ccsc1C(=O)N1CCC1(C)C(=O)NCc1cccnc1 (stereo not drawn) | -10% | 4%[18.4 µM]
C[C@H](NC(=O)CC[C@H]1O[C@@H](n2ccc(=O)[nH]c2=O)[C@H](O)[C@@H]1O)c1cccc2ccccc12 | -30% | 1%
CCc1n[nH]c(=S)n1/N=C/c1ccc(-c2ccc(Br)cc2)o1 | -12% | -4%
O=C1NC[C@H](CCCCN2C[C@H](Cc3ccccc3)N(CC3CCCCC3)C(=O)C2=O)N(CC2CCCCC2)C1=O | 1% | 3%
c1ccc(OC2CCCCC2N2CCOCC2)cc1 (stereo not drawn) | -5% | 0%
CCCNC(=O)c1cc(C2CCCCN2S(=O)(=O)c2cccc3cccnc23)on1 (stereo not drawn) | 20% | 4%
CC(C)(C)n1nnnc1C1c2ccccc2C(=O)N1CCc1c[nH]c2ccccc12 (stereo not drawn) | 9% | 11%
COc1ccc(-c2nc3ccc(C)cn3c2CC2CCCCC2)cc1OC | -10% | -23%
Nc1ncn([C@H]2C[C@H](O)[C@@H](CO)O2)c(=O)n1 | -22% | 2%

Record cards, as listed above. Order of screens: 2A StopGo | RE007 growth inh
`O=C(NCc1cccnc1)c1cc(C2CCCN(C(=O)CCCc3ccccc3)C2)on1` (stereo not drawn) across the screens: ? | -5%
`CN(C(=O)c1ccc(NC(=O)Cc2ccc(NC(=O)C3CCCN(C(=O)C4CCC4)C3)cc2)cc1)C1CCCC1` (stereo not drawn) across the screens: -13% | 1%
`COc1ccc(-c2nc3ccc(C)cn3c2CC2CCCCC2)cc1OC` across the screens: -10% | -23%

(more compounds)
Molecule | 2A StopGo | RE007 growth inh
Cc1cc2c(cc1C)-c1nnnn1C(N1CCCCC1)C(=O)N2 (stereo not drawn) | -18% | 3%
CC(=O)c1cccc(-c2ccnc3c2CC(C(=O)Nc2cccc(OC(F)(F)F)c2)O3)c1 (stereo not drawn) | -18% | 11%
CCCCN(C=O)c1c(CC)nc2ccc(C(=O)NCCCN3CCCC3=O)cn12 | -9% | 9%
Cc1nc(C(F)(F)F)ccc1C(=O)N1CCC1(C)C(=O)NS(C)(=O)=O (stereo not drawn) | -16% | -2%
CCCCNC(=O)c1nc(C2CCN(S(=O)(=O)c3c(F)cccc3F)CC2)oc1-c1cccc(C(F)(F)F)c1 | -6% | -6%
CC1CCN(C(=O)c2ncn3c2c(=O)[nH]c2cccnc23)CC1 | -18% | 20%
CC(C)C[C@H]1CN([C@@H](CC(C)C)CN2CCC[C@@H]2CN2C(=O)C(=O)NC[C@@H]2Cc2ccccc2)C(=O)C(=O)N1CC1CCCCC1 | -6% | 2%
COc1cc(CNc2ncnc3c2ncn3[C@H]2CN(Cc3ccc(-c4ccccc4)cc3)C[C@@H](CO)O2)cc(OC)c1OC | ? | 0%
COCC(=O)N1CCCC(C)(C(=O)Nc2cccc(Oc3ccccc3)c2)C1 (stereo not drawn) | -13% | -2%[18.4 µM]
OC(c1ccccc1)c1nc(-c2csc3ccccc23)cs1 (stereo not drawn) | 15% | 3%
Cc1ccccc1C#CC1=CC(=O)CC(C)(C)C1 | -22% | -1%
CCN(CC)C(=O)C1=C(C)N(CCC2=CCCCC2)C(=O)C(CC(=O)NCCc2ccccn2)C1 (stereo not drawn) | 7% | ?
Nc1ncnc2c1ncn2[C@@H]1O[C@H](C(=O)N2CCC[C@@H]2C(=O)OCc2ccccc2)[C@@H](O)[C@H]1O | -5% | 4%
Cc1cccc(C)c1NC(=O)C(c1ccccc1OC(F)(F)F)N1CCN(C/C=C/c2ccccc2)CC1 (stereo not drawn) | -23% | -4%
COc1ccccc1CNC(=O)Nc1nc(C(N)C(C)C)cs1 (stereo not drawn) | -8% | 6%[18.4 µM]
CCOc1ccc(CCNC(=O)COC(=O)c2n[nH]c3ccccc23)cc1OCC | ? | 9%
Cc1ccc(S(=O)(=O)N2CCC(C(=O)OCC(=O)N(Cc3ccccc3)C(C)C)CC2)cc1C | -7% | -5%
Cc1cc(-c2cc(C(=O)Nc3ccccc3)on2)nc(NCC2CC2)n1 | 19% | 11%
COc1ccc(C=CC(=O)c2ccc(OC)c(OC)c2)cc1O | -13% | -16%
CCN1CCN(c2ccc(S(=O)(=O)N3CCOCC3)cc2NC(=O)CC(NC(C)=O)c2ccccc2)CC1 (stereo not drawn) | -17% | 10%
O=c1[nH]c2ccccc2n1C1CCN(C(CCc2ccccc2)c2nnnn2C2CCCC2)CC1 (stereo not drawn) | 35µM* | -5%
COCCNC(=O)C1(C)CCCN(C(=O)c2cccc(C#N)c2)C1 (stereo not drawn) | 45%[activator] | 3%[18.4 µM]
Cc1ccc(N2CC(C(=O)Nc3cc(S(=O)(=O)N4CCCCC4)ccc3C)CC2=O)cc1 (stereo not drawn) | ? | 17%
CC1(C)N=C(N)N=C(N)N1c1ccc(OCC(=O)Nc2ccccc2)c(Cl)c1 | 54%[activator] | 9%
COc1ccc(NC(=O)COC(=O)C2COc3ccccc3O2)cc1 (stereo not drawn) | -10% | 0%
C[C@H](CO)N1C[C@H](C)[C@H](CN(C)C(=O)NC2CCCCC2)Oc2cc(-c3cccnc3)ccc2S1(=O)=O | -15% | -9%
Cc1ccc(C2C=C(c3ccccc3)Nc3ncnn32)cc1 (stereo not drawn) | -9% | 3%
CC(C)(CNC(=O)c1cccc(F)c1)CNC(=O)c1cccc(F)c1 | -18% | 3%
CC(=O)Nc1cccc2cc(S(=O)(=O)O)ccc12 | -9% | 4%[18.4 µM]
CCC(C)[C@H]1CNC(=O)C(=O)N1CCc1cccc(F)c1 (stereo partly drawn) | -24% | 9%
COc1ccc(OC2(C)CCN(Cc3ccccc3OC(F)F)C2)cc1 (stereo not drawn) | -19% | -28%
CCc1cccc(CC)c1NC(=O)C(CC)Sc1nc2ccsc2c(=O)n1CCC(=O)O (stereo not drawn) | -14% | 1%
CC(=O)Nc1ccc(-c2ccnc3c2CC(C)(C(=O)NCCN(C)C)O3)cc1 (stereo not drawn) | -11% | -18%
COc1ccc(-c2nc(S(=O)(=O)c3ccccc3)c(N3CCN(C)CC3)o2)cc1 | 14% | -2%
Cc1ccc(Cl)cc1-c1cc(C(=O)N2CCc3ccccc3C2)[nH]n1 | 9% | 1%
CO[C@@]1(NC(=O)C2SC(=C(C(N)=O)C(=O)O)S2)C(=O)N2C(C(=O)O)=C(CSc3nnnn3C)CS[C@@H]21 (stereo partly drawn) | -10% | 11%[18.4 µM]
Cc1ccc2nc(-c3cccc(Br)c3)c(CC3CCCCC3)n2c1 | 29% | ?
CC(=O)Nc1cccc(-c2ccnc3c2CC(C)(C(=O)Nc2ccc4c(c2)OCO4)O3)c1 (stereo not drawn) | -16% | 15%
Cc1ccc(-c2cnc(C(O)c3ccc(Cl)c(F)c3)[nH]2)cc1 (stereo not drawn) | 6% | -20%
Fc1ccc(-c2nc3ccc(Cl)cn3c2Cc2ccccc2C(F)(F)F)cc1 | 42%[activator] | -2%

A second format for four compounds above.
Results follow in this order: 2A StopGo	RE007 growth inh
> COc1ccc(OC2(C)CCN(Cc3ccccc3OC(F)F)C2)cc1 (stereo not drawn)
→ -19%	-28%
> CCc1cccc(CC)c1NC(=O)C(CC)Sc1nc2ccsc2c(=O)n1CCC(=O)O (stereo not drawn)
→ -14%	1%
> CC(=O)Nc1ccc(-c2ccnc3c2CC(C)(C(=O)NCCN(C)C)O3)cc1 (stereo not drawn)
→ -11%	-18%
> COc1ccc(-c2nc(S(=O)(=O)c3ccccc3)c(N3CCN(C)CC3)o2)cc1
→ 14%	-2%

Following part
Molecule | 2A StopGo | RE007 growth inh
Cc1cnc2nc(-c3ccccc3)ccc2c1 | 15% | ?
COc1ccc(NC(=O)C2c3ccccc3OCC(=O)N2CC(F)(F)F)cc1 (stereo not drawn) | ? | 2%
O=C1Nc2ccccc2N=C(c2ccccc2)C1N(Cc1ccc(F)cc1)C(=O)c1cccnc1 (stereo not drawn) | -5% | 1%
O=C(CCCN1C(=O)C(=Cc2ccc3c(c2)OCO3)SC1=S)Nc1ccc(C(=O)O)c(O)c1 | 16% | 0%
COc1ccc(NC(=O)c2ccc3c(c2)S(=O)(=O)c2ccccc2C3=O)cc1 | -17% | 3%
CCCNC(=O)c1cc2c(c(-c3cccc(-c4ccc(C#N)cc4)c3)n1)[C@@H](CCO)N(C(=O)CC)C2 | -22% | 1%
C#Cc1ccc([C@@H]2C=C(C(=O)O)O[C@H](OCC)[C@H]2CCCO)cc1 | -4% | 9%
CN(c1ccc(-c2csc(NC(=O)CCCc3nc4ccccc4c(=O)[nH]3)n2)cc1)S(C)(=O)=O | 35µM* | 6%
CC1=C(C(=O)N(C(C)C)C(C)C)CC(CC(=O)NC(c2ccccc2)c2ccccc2)C(=O)N1Cc1ccc(C(C)(C)C)cc1 (stereo not drawn) | -25% | 4%
COC(=O)c1cc(C)nc(Nc2nc(C(N)Cc3ccc(F)cc3)cs2)n1 (stereo not drawn) | -25% | -3%

Compound activity from PubChem.
